# Rango release inh – qHTS Assay for Inhibitors of RanGTP induced Rango (Ran-regulated importin-beta cargo) - Importin beta complex dissociation; AID 540253, 2011; Biochemical FRET Rango-importin beta, RanGTP-induced dissociation; Potency, µM (doses to about 46.1 µM), for the others: at the highest dose activity change, negative = inhibition; 340,000 tested, 0.071% active; active means falling FRET ratio curve, often poorly fitted, with flat reads before Ran was added; inconclusive means other falling curves, or compound fluorescence or quenching; inactive means flat or rising ratio curve;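 further: potency means the concentration at half of the fitted maximal effect; % of control where 0% means no effect; nearly all actives have a fitted effect of over 45% in size; -100% = wells without RanGTP and RCC1; the record marks most hits as doubtful in a second field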
#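 Two FRET readings bracket the reaction: one 5 min after compound meets Rango–importin beta, another 45 min after RanGTP-RCC1 (0.6 uM Ran, 0.2 uM RCC1, 2 mM GTP) is added. Only the second defines inhibition.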
# GLA inh pH 4.5 – qHTS Assay for Inhibitors of Human alpha-Galactosidase at pH 4.5. Alpha-galactosidase A (Homo sapiens), P06280. purified enzyme, 4-MU-alpha-Gal fluorescence, pH 4.5. activity change, negative = inhibition, % at 105 µM. 230,000 tested, under 10 active; inconclusive = small, poorly fitted or top-dose-only inhibition, or a rising curve; inactive = flat fitted curve, though single readings scatter; no compound was filed as active;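 further: 0% = full activity with enzyme and -100% = basal without enzyme; dose as in the result columns while the protocol names 77 µM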
# Target sequence (P06280 whole entry, looked up): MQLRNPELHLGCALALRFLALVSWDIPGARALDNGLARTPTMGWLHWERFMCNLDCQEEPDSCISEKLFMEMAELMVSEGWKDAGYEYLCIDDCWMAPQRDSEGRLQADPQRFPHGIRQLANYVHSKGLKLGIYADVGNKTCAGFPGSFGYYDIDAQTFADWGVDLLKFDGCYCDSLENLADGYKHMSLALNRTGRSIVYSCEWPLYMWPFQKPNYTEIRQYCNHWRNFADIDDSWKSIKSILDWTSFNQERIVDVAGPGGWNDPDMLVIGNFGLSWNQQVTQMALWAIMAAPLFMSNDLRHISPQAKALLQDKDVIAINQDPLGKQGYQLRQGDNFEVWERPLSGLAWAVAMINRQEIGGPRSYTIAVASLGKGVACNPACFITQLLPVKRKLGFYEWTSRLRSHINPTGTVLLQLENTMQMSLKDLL
# miR-21 reporter – qHTS Assay for Modulators of miRNAs and/orActivators of miR-21; HeLa miR-21 FLuc reporter, luciferase, 48 h; Potency, µM (doses to about 38.3 µM), for inactives: top-dose reporter change, positive = more light; 340,000 tested, under 10 active; active = well fitted rising curve with a large enough effect; inconclusive = small, poorly fitted or top-dose-only effect; inactive = no such curve, though single readings can be large or run the other way;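 further: % of control where 0% means no effect; miR-21 action dims this reporter so a rising signal means less miR-21 action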
#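 HeLa cells endogenously expressing miR-21, stably carrying CMV-driven firefly luciferase with a downstream miR-21 binding site, 2000 cells/well. Titrations up to approximately 40 uM, 48 hours; luciferase luminescence read.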
# Rango-impB inh – qHTS Assay for Inhibitors of Rango (Ran-regulated importin-beta cargo) - Importin beta complex formation; Importin subunit beta-1 (Homo sapiens), Q14974; Rango CFP/YFP FRET sensor + importin beta, 45 min; Potency, µM (series often up to 92.2 µM), for the others: at the top dose inhibition of complex formation; 340,000 tested, 0.031% active; AID 540263, 2011; active = rising FRET ratio curve, often small or poorly fitted; inconclusive = mostly compound fluorescence or quenching in the first reads; inactive = flat curves in all reads;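 further: potency means the concentration at half of the fitted maximal effect; 0% = DMSO wells and 100% = buffer wells lacking importin beta; nearly all actives have a fitted effect of over 15% in size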
#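 FRET biosensor Rango (snurportin 1 IBB between N-terminal EYFP and C-terminal Cerulean), 50 nM in PBS/1 mM DTT/0.02% Tween-20/0.1% BSA, preincubated 5 min RT with compound; 0.125 microM importin beta added, 45 min RT, CFP/YFP FRET ratio read.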
# Starred values were filed as active, the others as inactive; ? = inconclusive; . = no result given.
Rango release inh	GLA inh pH 4.5	miR-21 reporter	Rango-impB inh	compound
-2%	.	.	-1.3%	CCOC(=O)c1nn(-c2ccc(F)cc2)c(=O)cc1OCC(=O)Nc1ccc(F)c(F)c1
-1%	-9	-6%	0.7%	COc1cc(/C=N/NC(=O)Cc2csc(C)n2)ccc1OCC(C)C
-4%	-14	-12%	7.2%	CC(=O)Nc1ccc(S(=O)(=O)Nc2nc3c(s2)CCCC3)cc1
-8%	3	-4%	-4.1%	CC(=O)Nc1ccc(S(=O)(=O)N(Cc2ccco2)CC2CCCO2)cc1 (configuration not stated)
15%	.	.	-0.9%	CC(C)C[C@@H](CNCC(=O)[C@H](C)NC(=O)c1[nH]cnc1C(=O)N[C@@H](C)CN)NC(=O)c1nc[nH]c1C(=O)N[C@@H](CC(=O)O)C(=O)O
7%	.	0%	0.1%	CC(=O)c1cn(C(=O)c2ccc(Cl)cc2)c2ccccc12
-4%	2	6%	3.3%	COc1cc(/C=C/C2=NC(=O)C(C)(C)O2)ccc1O
?	.	.	?	Nc1ccc(-c2cnc3ccccc3n2)cc1
-11%	.	0%	7.1%	COc1ccc2c3c(cccc13)OC2=O
6%	-6	-3%	-2.2%	Cc1ccc(Cn2ccc(NC(=O)c3cc(CC(C)C)on3)n2)cc1
-24%	0	-12%	4.6%	Cc1nonc1C(=O)N/N=C/c1cccc(O)c1
5%	5	-12%	2.6%	O=C(Nc1cccc(S(=O)(=O)N2CCOCC2)c1)c1ccccn1
1%	-3	0%	-5.7%	Cn1c(SCC(=O)N2CCCC2)nc2ccccc2c1=O
24%	2	-2%	1.1%	COC(=O)N/N=C/c1cccs1
-11%	-4	1%	-3.6%	FC(F)(F)c1cc(C(F)(F)F)c2ccc(Oc3ccccc3)nc2n1
11%	4	-13%	-0.4%	O=C(COc1ccccc1)Nc1ccc(OC(F)(F)C(F)F)c(NC(=O)COc2ccccc2)c1
15%	.	.	-1.5%	O=C(NCC(c1ccco1)N1CCc2ccccc2C1)c1ccccc1Br (configuration not stated)
-1%	.	.	-1.1%	CCOC(=O)C1=CN(Cc2ccco2)S(=O)(=O)NC1c1cccc(OC)c1 (configuration not stated)
18%	4	-4%	3.0%	c1csc(-c2ccn[nH]2)c1
9%	.	-30%	1.9%	O=C(/C=C/c1ccccc1Cl)N1CCOCC1
1%	-2	-20%	1.1%	O=C(/C=N/NC(=O)c1ccc(Cl)cc1Cl)c1ccccc1
16%	8	0%	?	CCCCn1c(CCNC(=O)CCC)nc2ccccc21
23%	1	-9%	-3.2%	Cc1cc(C)c2[nH]c(=O)c(=O)[nH]c2c1
20%	-2	2%	-2.9%	Cc1cc(C)c(/C=N/NC(N)=O)c(C)c1/C=N/NC(N)=O
?	.	.	-0.8%	O=C(Nc1nnc(SCc2ccccc2)s1)C1=COCCO1
-7%	6	-2%	-2.9%	CC1=CCCC(C)(C)C1/C=C/C(C)=N/NC(=O)c1ccncc1 (configuration not stated)
12%	4	-7%	3.3%	Cc1ccc(S(=O)(=O)N/N=C/c2cccc(OC3CSC3)c2)cc1
22%	.	-4%	-7.5%	OCC1(Cc2ccccc2F)CCCN(CC2CCCCC2)C1 (configuration not stated)
-2%	.	.	5.7%	CN(CC(=O)NCCc1ccc(S(N)(=O)=O)cc1)CC(=O)Nc1cccc(F)c1
2%	-8	9%	4.3%	COc1ccc(NS(=O)(=O)c2cc(NC(=O)CNC(=O)c3ccc(C)s3)ccc2Cl)cc1
22%	.	.	3.8%	COc1ccccc1C(=O)NC(=O)COC(=O)CCOc1ccc(C)cc1
-6%	2	0%	-0.5%	O=C(c1ccc(S(=O)(=O)Nc2ccccc2)cc1)N1CCOCC1
-14%	2	16%	-3.6%	NC(=S)N/N=C/c1ccc(-c2ccc(SC(F)F)cc2)o1
3%	-12	26%	-0.8%	COC(=O)c1sc(NC(=O)c2cc(-c3ccccc3)nc3ccccc23)c(C#N)c1C
4%	-11	-2%	0.2%	Cc1cc(NS(=O)(=O)c2ccc(NC(=O)CSc3nnc(-c4ccco4)n3N)cc2)nc(C)n1
1%	.	2%	1.1%	Cc1cccc(-n2nc3c(c2NC(=O)CCCl)CSC3)c1
-6%	1	-5%	0.3%	Cc1cccc2cc(CN(CCCN(C)C)C(=S)NCCc3ccccc3)c(=O)[nH]c12
8%	8	6%	-3.0%	O=C1CSC(c2ccccn2)N1c1ccc(C(F)(F)F)cc1 (configuration not stated)
-15%	-4	-30%	?	Cc1cc(=O)[nH]c(SCC(=O)Nc2nc3ccccc3s2)n1
-11%	.	0%	3.6%	COc1ccc(NC(=O)NNS(=O)(=O)c2ccc(OC)c(OC)c2)c(OC)c1
-6%	.	.	-0.7%	Cn1nc(C(=O)OCC(=O)Nc2ccccc2OC(F)F)c2ccccc2c1=O
-6%	.	-9%	-0.4%	CCOC(=O)C1(Cc2cccc(Cl)c2)CCCN(C(=O)c2cc(C)n(C)n2)C1 (configuration not stated)
1%	-7	2%	5.1%	CCCn1nnnc1NCc1ccccc1OCc1ccc(F)cc1
?	-14	-7%	?	CC1=NN2C(=N)/C(=C\c3cc(C)n(Cc4ccccc4)c3C)C(=O)N=C2S1
0%	.	.	0.4%	N#Cc1ccc(S(=O)(=O)N2CCC(C(=O)N3CCN(Cc4ccc5c(c4)OCO5)CC3)CC2)cc1
31%	-3	-1%	-2.2%	O=C(O)CCC(=O)N(Cc1ccco1)C1CC(=O)N(c2ccccc2)C1=O (configuration not stated)
?	2	-21%	?	CC(=O)C1=C(C)NC(C)=C(C(C)=O)C1c1ccc(-c2ccccc2Cl)o1
0%	.	-4%	-0.9%	Cc1ccc(S(=O)(=O)N2CCCCC2)cc1C(=O)NCCCN1CCOCC1

# An excerpt of these results, with bars between the fields:
molecule | Rango release inh | GLA inh pH 4.5 | miR-21 reporter | Rango-impB inh
COc1cc(/C=C/C2=NC(=O)C(C)(C)O2)ccc1O | -4% | 2 | 6% | 3.3%
Nc1ccc(-c2cnc3ccccc3n2)cc1 | ? | . | . | ?
COc1ccc2c3c(cccc13)OC2=O | -11% | . | 0% | 7.1%
Cc1ccc(Cn2ccc(NC(=O)c3cc(CC(C)C)on3)n2)cc1 | 6% | -6 | -3% | -2.2%
Cc1nonc1C(=O)N/N=C/c1cccc(O)c1 | -24% | 0 | -12% | 4.6%
O=C(Nc1cccc(S(=O)(=O)N2CCOCC2)c1)c1ccccn1 | 5% | 5 | -12% | 2.6%
Cn1c(SCC(=O)N2CCCC2)nc2ccccc2c1=O | 1% | -3 | 0% | -5.7%
COC(=O)N/N=C/c1cccs1 | 24% | 2 | -2% | 1.1%
FC(F)(F)c1cc(C(F)(F)F)c2ccc(Oc3ccccc3)nc2n1 | -11% | -4 | 1% | -3.6%
O=C(COc1ccccc1)Nc1ccc(OC(F)(F)C(F)F)c(NC(=O)COc2ccccc2)c1 | 11% | 4 | -13% | -0.4%
O=C(NCC(c1ccco1)N1CCc2ccccc2C1)c1ccccc1Br (configuration not stated) | 15% | . | . | -1.5%
CCOC(=O)C1=CN(Cc2ccco2)S(=O)(=O)NC1c1cccc(OC)c1 (configuration not stated) | -1% | . | . | -1.1%
c1csc(-c2ccn[nH]2)c1 | 18% | 4 | -4% | 3.0%
O=C(/C=C/c1ccccc1Cl)N1CCOCC1 | 9% | . | -30% | 1.9%
O=C(/C=N/NC(=O)c1ccc(Cl)cc1Cl)c1ccccc1 | 1% | -2 | -20% | 1.1%

# The list goes on:
Rango release inh	GLA inh pH 4.5	miR-21 reporter	Rango-impB inh	compound
-19%	.	.	-4.9%	CC1CCC(NC(=O)CN2C(=O)NC3(CCCCCC3)C2=O)CC1 (configuration not stated)
5%	7	2%	-2.3%	O=C(O)c1cc(NC(=O)c2ccccc2[N+](=O)[O-])ccc1O
-6%	0	-27%	0.7%	CC1=C(C(=O)Nc2ccccc2)C(c2ccccc2[N+](=O)[O-])NC(=O)N1 (configuration not stated)
-14%	-5	-1%	-1.4%	O=C(Nc1ccccc1)C1CCCN1C(=O)Nc1ccccc1[N+](=O)[O-] (configuration not stated)
0%	10	-2%	1.6%	CN1CCCC(C#CC(O)(c2ccccc2)c2ccccc2)C1 (configuration not stated)
11%	.	.	3.3%	COc1ccc(C(=O)NCc2ccc(C)cc2)cc1S(=O)(=O)N1CCCC1
24%	.	.	-1.2%	CCC[C@@H]1CCCC/C=C\CCCC(=O)OCCN1C(=O)OC(C)(C)C
0%	.	-2%	0.0%	Cn1c(=O)oc2cc(S(=O)(=O)Nc3ccccc3F)ccc21
?	7	-10%	?	CCN(CC)C(=O)CC(c1cc(OC)c(OC)c(OC)c1)c1c(OC)cc(OC)c2ccc(=O)oc12 (configuration not stated)
-11%	-2	-58%	0.1%	COc1cccc(C(=O)NCCC2=CCCCC2)c1OC
2%	-2	-1%	0.0%	CC(C)NS(=O)(=O)c1ccc(OCC(=O)Nc2ccc(F)cc2F)cc1
9%	-9	-4%	-2.1%	CCCCN(CCCC)CC(O)COc1ccccc1C(=O)Nc1ccccc1 (configuration not stated)

# Arranged by value in Rango release inh (descending): 3 from the list above.
smiles	Rango release inh
COc1ccc(C(=O)NCc2ccc(C)cc2)cc1S(=O)(=O)N1CCCC1	11%
CC(C)NS(=O)(=O)c1ccc(OCC(=O)Nc2ccc(F)cc2F)cc1	2%
CC1=C(C(=O)Nc2ccccc2)C(c2ccccc2[N+](=O)[O-])NC(=O)N1 (configuration not stated)	-6%

# Next part.
Rango release inh	GLA inh pH 4.5	miR-21 reporter	Rango-impB inh	compound
?	?	11%	?	O=C(Nc1cccc(C(F)(F)F)c1)c1cc2c(s1)-c1ccccc1OC2
-4%	-7	-26%	-0.3%	CS/C(N)=N/N=C/c1ccc([N+](=O)[O-])cc1
0%	.	24%	0.8%	Cn1c(=O)c2c(ncn2CCOc2cccc(Br)c2)n(C)c1=O
3%	1	-14%	?	Cc1cccc(NC(=O)Nc2ccc(C#N)cc2)n1
13%	.	0%	0.0%	Cn1c(=O)n(Cc2ccccc2Cl)c(=O)c2c1[nH]c(=S)n2C
-5%	-5	-6%	5.0%	Cc1ccc(O)c(N=Nc2ccc(S(=O)(=O)N3CCOCC3)cc2)c1
1%	6	?	-4.4%	COc1ccc(-c2coc3cc4oc(=O)cc(-c5ccccc5)c4cc23)cc1F
19%	-22	-8%	-0.7%	CC12CCC(C(=O)Nc3ccc(Br)cn3)(OC1=O)C2(C)C (configuration not stated)
?	-5	5%	-7.2%	COC(=O)CCSCC(=O)N1N=C(c2ccc(OC)cc2)CC1c1cccc(OC)c1OC (configuration not stated)
0%	.	?	-2.6%	CC(C)C(=O)NC(c1cccc([N+](=O)[O-])c1)c1ccc2cccnc2c1O (configuration not stated)
1%	6	-2%	-4.8%	O=C1N(c2ccccc2)C2CS(=O)(=O)CC2N1c1ccc(Cl)c(Cl)c1 (configuration not stated)
2%	.	.	1.7%	COc1ccc(-c2ccc(NC(=O)c3ccco3)cc2)nn1
6%	2	26%	0.1%	Cc1ccc(C(=O)n2c(N)nc3ccccc32)cc1
-5%	-9	3%	-1.6%	CCC(Sc1ncccc1C(=O)OCCN1CCCC1=O)C(=O)NCc1ccco1 (configuration not stated)
-5%	8	2%	0.0%	COc1ccc2c(-c3ccccc3)cc(SCC(=O)NC(N)=O)nc2c1
-7%	-9	4%	-0.2%	CCOc1ccc(NC(=O)CC2C(=O)Nc3ccccc3N2C(=O)c2ccccc2)cc1 (configuration not stated)
0%	2	-2%	-0.3%	COc1ccccc1NC(=O)c1c([N+](=O)[O-])c(C(C)(C)C)nn1C
5%	.	.	1.3%	CC[C@@]1(C(=O)OC)N[C@H](CN(C)C(=O)c2ccc(C)cc2)[C@@H]2C(=O)N(Cc3ccccc3)C(=O)[C@@H]21
-9%	5	-2%	0.1%	O=C(Cc1ccccc1)N1CCN(C(=O)c2cccs2)CC1
-3%	-7	4%	0.1%	O=C(NCCS(=O)(=O)c1ccc(Cl)cc1)c1ccc(F)cc1
22%	-2	-8%	-1.8%	Cc1ccc(Oc2nnc(-c3ccccc3)c3ccccc23)cc1

# From PubChem

# A portion of the library; count on the stated rates, not on these rows.
